Source: PubChem
Calb FLC – affects C. albicans growth with fluconazole; C. albicans CaCi-2 (fluconazole-resistant clinical isolate) + fluconazole, Alamar Blue growth, 48 h; growth inhibition, % (no concentration beside the values); actives 0.57% (n = 300,000);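 active = most replicates above 75%; inconclusive = exactly half above 75%; inactive = most below 75%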;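 also: all wells also contain fluconazole at 8 µg/ml as a sub-toxic cotreatment; 0% = median of DMSO wells and 100% = median of geldanamycin control wells; wells of about 8 µL received 7.5 nL stock; the first replicate is given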
Vif TR-FRET – inhibitors of Vif binding to APOBEC3G peptide, primary screen, biochemical, TR-FRET, GST-Vif 1-94, biotin-A3G peptide, dose response retest (AID 1117319). TR-FRET GST-Vif / biotin-A3G peptide binding; higher % means a stronger effect; test concentration not given here; strong numbers were not always called active. inhibition, %, or IC50 in µM where a hit was titrated. actives 0.57% (n = 260,000);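 active = above the screen mean plus three standard deviations and confirmed in dose response; inconclusive = results disagree or hit not tested in dose response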;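 also: Vif residues 1-94 fused to GST binding biotinylated APOBEC3G peptide 110-148; 0% = full assay without inhibitor and 100% = GST in place of GST-Vif; retest series ran down from 100 µM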
Beta cell apopt – blocks beta cell apoptosis; protection from apoptosis, % (no concentration beside the values); actives 0.8% (n = 300,000); INS-1E cytokine-induced death, ATP luminescence, 48 h; percent of positive-control rescue, neutral wells zero; AID 435005;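 active = all replicates at 75% or more, or half of them and the mean; inconclusive = half reach 75% but not the mean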;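 also: 0% = cytokine-treated negative control wells and 100% = positive control rescue; higher means more ATP so stronger rescue from cytokine killing; wells of about 40 µL received 100 nL stock; the first replicate is given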
AF4-AF9 inh – blocks AF4 peptide binding to human AF9; AlphaScreen, biotin-AF4 peptide binding to FLAG-AF9; AID 651704; P42568; actives 0.47% (n = 350,000); inhibition, % at 10 µM;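 active = every replicate reaching a set inhibition limit, whatever the replicate mean, cut at about 25% in these data; inconclusive = mean inhibition reaches that limit but some replicates miss it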;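 also: 0% = plate neutral control median and 100% = total signal loss; the record names both 10 and 1 µM as test concentration; the first replicate is given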
Target sequence (P42568 whole entry, looked up): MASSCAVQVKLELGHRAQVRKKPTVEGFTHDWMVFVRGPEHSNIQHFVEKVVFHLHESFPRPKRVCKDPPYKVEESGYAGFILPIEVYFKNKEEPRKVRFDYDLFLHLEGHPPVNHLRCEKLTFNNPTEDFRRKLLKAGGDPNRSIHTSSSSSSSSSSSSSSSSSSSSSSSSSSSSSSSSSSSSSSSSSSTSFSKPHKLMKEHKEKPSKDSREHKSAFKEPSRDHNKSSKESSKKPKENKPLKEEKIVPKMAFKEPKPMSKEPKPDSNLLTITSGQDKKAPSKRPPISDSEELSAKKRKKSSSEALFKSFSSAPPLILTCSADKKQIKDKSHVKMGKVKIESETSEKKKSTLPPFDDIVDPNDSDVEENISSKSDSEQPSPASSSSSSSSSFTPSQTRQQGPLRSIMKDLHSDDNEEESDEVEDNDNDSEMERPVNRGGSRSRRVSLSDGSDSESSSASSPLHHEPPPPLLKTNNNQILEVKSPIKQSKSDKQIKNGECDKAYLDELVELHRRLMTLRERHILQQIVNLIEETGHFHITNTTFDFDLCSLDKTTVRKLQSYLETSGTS
A1 inh – inhibitors of the anti-apoptotic protein A1, read as caspase activation; MEF A1-2A-BIM cells, Caspase-Glo 3/7 luminescence, 3 h; percent of clofoctol response, vehicle zero; caspase activation, % (no concentration beside the values); actives 0.066% (n = 330,000);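 active = over half of replicate activation scores above 10%, or exactly half above 10 with the replicate mean above 10; inconclusive = replicate mean below 10 yet half the replicates above 10; inactive = over half of replicates below 10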;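 also: wells of about 30 µL received 50 nL stock; many hits fall short of the cut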
RanGTP-Imp inh – disruptors of Ran-importin-beta complex formation – biochemical, FRET, CFP-Ran, YFP-importin-beta, homogeneous, primary screen | cell-free CFP-Ran/YFP-importin-beta FRET ratio | actives 1.1% (n = 300,000) | inhibition, % (concentration not given with the values);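 active = most replicates above 15%; inconclusive = exactly half above 15%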;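 also: 0% = DMSO wells and 100% = Ran loaded with GDP instead of GTP; wells of about 40 µL received 100 nL stock; the first replicate is given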
Ecoli rRNA inh – selective bacterial rRNA inhibition in E. coli; E. coli WT GFP vs humanized-ribosome RFP mutants, fluorescence, 24 h; stronger effect = lower value; DMSO median 0, no signal -100; actives 1.6% (n = 350,000); AID 720706; GFP signal change (wild-type ribosome), % (no concentration beside the values);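 active = significant combined selectivity score with lowered wild-type GFP, culture density cut under 30%, mutant RFP and density less affected; inactive = any of these conditions unmet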; also: one replicate is shown; some compounds called inactive have numbers as strong as hits
T cruzi repl – T. cruzi replication inhibition; T. cruzi beta-gal in NIH3T3, luminescence, 90 h; inhibition, % (test concentration not listed); actives 1.4% (n = 300,000); AID 1885;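 active = mean inhibition across valid replicates above about 55%, limit read from the data; inconclusive = mean below that limit but half or more replicates reach it; inactive = mean below it, under half of replicates reach it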;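 also: signal also drops with host cell toxicity which is not excluded here; 0% = plate median of DMSO wells and 100% = zero luminescence signal; higher percent means less beta-gal luminescence so fewer parasites; stock transfer was 50 nL into about 50 µL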
Ecoli rRNA inh OD600 – recorded beside Ecoli rRNA inh, whose call it bears; OD600 change, %; measured here: OD600 growth;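 optical density of the mix in the first replicate; 0 = DMSO median and -100 = no signal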
Ecoli rRNA inh RFP – further read-out of Ecoli rRNA inh, marked with its call; RFP signal change, %; measured here: RFP humanized mutant strains;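 first replicate; 0 = DMSO median and -100 = no signal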
* marks the source's active call; other numbers are inactive results; ? = inconclusive; nt = no result given. Not all compounds are listed; rates above refer to the full screens.

SMILES	Calb FLC	Vif TR-FRET	Beta cell apopt	AF4-AF9 inh	A1 inh	RanGTP-Imp inh	Ecoli rRNA inh	Ecoli rRNA inh OD600	Ecoli rRNA inh RFP	T cruzi repl
COc1ccc(NC(=O)COc2ccc(C(=O)OCC(=O)N(C(C)C)C(C)C)cc2OC)cc1	-4	nt	-3	-1.2	0.1	-0.6	-27*	-22*	-0.4*	2
CCCn1c(SCC(=O)Nc2cc(C)on2)n[nH]c1=O	nt	nt	-3	1.2	1.1	nt	5	11	-2.5	nt
COc1cc2c3c(c1)C(C)CC(C)(C)N3C(=O)C2=O (stereo not given)	-9	0%	-4	20	0.4	2.2	nt	nt	nt	6
CCOC(=O)C1CCCN(c2nc3ccccc3nc2C(C#N)C(=O)OC(C)C)C1 (stereo not given)	3	nt	4	23	-0.1	-0.7	49	22	2.5	3
CCN(CC)CCCN(Cc1cc2cc(OC)c(OC)cc2[nH]c1=O)C(=O)Nc1ccccc1	0	-5%	-11	nt	-0.5	-5.3	nt	nt	nt	-15
COc1ccc(-c2nc(N)nc(C(F)(F)F)c2-c2ccccc2OC)c(O)c1	0	-2%	1	2.9	0.8	7.2	-43	-58	-14	3
NC1=NC(=O)C2(COC(c3cccc([N+](=O)[O-])c3)OC2)S1 (stereo not given)	1	nt	-2	-1.4	-0.3	1.1	9	5	0.7	-13
O=C(CSc1ccccc1C(=O)O)NCc1ccco1	2	23%	0	nt	0.1	-0.7	nt	nt	nt	5
CCC(CC)C(=O)N1N=C(c2ccc(NS(C)(=O)=O)cc2)CC1c1ccccc1 (stereo not given)	1	2%	1	6.7	1.1	2.3	-20	-10	34	-5
COc1ccccc1/C=C(/CC(=O)NCc1ccc2c(c1)OCO2)c1nc2ccccc2s1	-3	nt	8	nt	-0.3	-0.8	nt	nt	nt	55*
COc1ccc(/C=N/Nc2ncnc3c2[nH]c2ccccc23)c(OC)c1OC	-4	nt	-6	nt	2.0	3.3	nt	nt	nt	0
O=C(c1ccccc1)N1CCN(c2nc3ccc([N+](=O)[O-])cc3s2)CC1	4	?	36	1.4	1.2	-1.8	1	7	-0.1	12
O=C1CC(C(=O)Nc2cccc(F)c2)n2c(nc3ccccc32)N1 (stereo not given)	-3	-4%	1	-23	-0.2	?	9	10	4.7	-18
CCCOC(=O)c1c(-c2ccc(OC)cc2)oc2ccc(-c3ccc(OC)nc3)cc12	-12	nt	16	-9.8	0.4	0.8	19	15	-5.7	2
c1ccc2c(c1)CCN(c1nc3cc4c(cc3s1)OCO4)C2	3	-1%	17	nt	-6.8	3.8	nt	nt	nt	1
COc1ccc(CCNC(=O)c2oc3ccccc3c2C)cc1	nt	4%	-2	-0.3	-1.3	nt	-26	-45	-7.9	nt
CC(C)CCNC(=O)CN(Cc1ccc2c(c1)OCO2)C(=O)Cn1nnc(-c2cccs2)n1	-9	18%	nt	nt	0.9	-1.7	nt	nt	nt	18
Cc1cccc(C)c1NC(=O)C(C)c1ccc(-c2ccccc2)c(F)c1 (stereo not given)	2	12%	0	nt	0.2	1.0	nt	nt	nt	13
CCCNC(=O)c1onc(CSc2cccc(OC)c2)c1C(=O)NCCC	-1	25%	-1	-5.4	0.9	3.5	-3	-8	-5.5	-6
Cc1c(C=O)c2ccccc2n1CCOc1ccccc1	-2	nt	1	4.6	0.6	2.1	-10	-11	1.8	-15
O=C(O)c1ccc(NC(=O)c2ccc(Cl)cc2)c(NC(=O)c2ccc(Cl)cc2)c1	7	nt	nt	-3.6	0.4	4.7	3	1	-4.0	-10
CC1=C(C(=O)Nc2cccc(C(=O)N3CCN(c4cccc(C(F)(F)F)c4)CC3)c2)SCCO1	13	nt	6	8.9	0.6	-0.8	-33	-41	-11	20
CN(Cc1ccccc1)C(=O)c1ccccc1Br	11	-5%	2	nt	-0.4	?	nt	nt	nt	-4
COC(=O)c1ccccc1NC(=S)N1CCC(N2CCCCC2)CC1	17	19%	-14	-65	-0.4	?	2	1	-1.6	11
Cc1cc(C)n2nc(C(=O)Oc3ccc4c(c3)OCO4)nc2n1	18	nt	1	nt	1.4	0.8	nt	nt	nt	-13
CN1CCN(c2ccc(NC(=O)c3cccc(OCc4ccccc4)c3)cc2)CC1	-7	7%	1	nt	-3.7	-1.9	nt	nt	nt	14
COCCCNC(=S)NNC(=S)Nc1ccc(F)cc1F	-8	-1%	2	nt	0.1	2.0	nt	nt	nt	-8
COc1ccc2cc(Br)ccc2c1CC(=O)NC(C)(C)C	-6	-8%	2	nt	1.6	-0.8	nt	nt	nt	16
Cc1ccccc1C(=O)Nc1nc(-c2cccnc2)cs1	-1	-6%	2	6.5	1.2	-1.4	7	-3	1.9	-17
COc1cc(/C=N/Nc2ccc(C)cc2)cc(Br)c1O	-10	18%	-6	5.1	2.6	4.0	-10	-6	-0.6	-1
O=S(=O)(NC(=S)NC1CCCCC1)c1ccc(Br)cc1	-3	-2%	-7	-5.8	0.2	1.9	-9	-24	-1.0	-18
CCOc1ccc(N2Nc3n[nH]c(N)c3N2)cc1	21	5%	-20	nt	-2.1	-5.0	nt	nt	nt	-16
Cc1ccc(N2CCN(CC(O)COc3cccc(C)c3)CC2)cc1 (stereo not given)	-13	23%	-7	2.3	0.0	3.7	-3	-9	-4.6	-23
CCc1ccc(CNC(=O)c2ccc(OC)c(OC3CCN(C(C)C)CC3)c2)nc1	-9	-2%	nt	1.4	0.0	?	0	3	0.8	-4
Cc1ccc(-c2noc(C3CCCN(C(=O)c4ccc(Cl)cc4)C3)n2)o1 (stereo not given)	4	nt	22	1.1	0.1	-3.4	-2	-22	3.1	9
Cc1ncoc1C(=O)N1CCCC(C(=O)c2cccc3ccccc23)C1 (stereo not given)	-10	8%	-3	-0.9	0.0	1.2	4	9	-5.7	-9
Cc1ccc(NC(=O)COC(=O)c2c(-c3ccccc3)noc2C)c(C)c1	nt	2%	-3	-5.2	1.5	nt	-1	13	-1.6	nt
Cc1nn2c(-n3ccnc3C)c3c(nc2c1-c1ccccc1)CCC3	11	4%	0	nt	-0.4	5.4	nt	nt	nt	-12
COc1ccc(C2Nc3ccccc3C(=O)N2NC(C)=O)cc1OC (stereo not given)	3	6%	4	-1.2	0.3	0.8	19	22	0.7	-15
Cn1cnnc1SCC(=O)Nc1ccc(F)cc1F	1	1%	-4	-3.2	0.4	0.9	12	10	0.9	-14
OC(CN1CCOCC1)(c1ccccc1)c1ccccn1 (stereo not given)	-4	-4%	-7	-1.7	0.4	2.6	13	27	2.4	-24
CCOC(=O)C1=C(C)NC(=NC)SC1c1ccccc1 (stereo not given)	0	1%	-2	4.0	-1.0	5.4	-3	-4	0.0	16
Cc1ccc(C(C)(O)CS(=O)(=O)Cc2ccccc2)cc1 (stereo not given)	-8	-4%	-4	-1.3	0.1	-3.5	8	11	-1.4	4
Cc1cc(Sc2nc(NC(C)(C)C)nc(N3CCOCC3)n2)nc(Cl)n1	12	nt	1	nt	0.7	2.1	nt	nt	nt	19
NS(=O)(=O)c1ccc(Nc2nc(-c3ccccc3)cs2)cc1	27	13%	-9	nt	1.3	-0.1	nt	nt	nt	44
COc1ccccc1CCc1nnc(CCC(=O)NC(C)Cc2cccnc2)o1 (stereo not given)	8	nt	1	-1.1	0.5	2.5	15	12	-0.3	-50
Cc1ccc(CCNC(=O)CS(=O)Cc2nc(-c3ccccc3Cl)oc2C)cc1 (stereo not given)	1	nt	-9	-1.1	-0.9	-2.6	2	-1	0.1	0
CCCCNS(=O)(=O)c1ccc2nc(-c3cccnc3)cc(C(=O)NC(C)CC)c2c1 (stereo not given)	-3	nt	-1	0.1	-0.3	1.4	4	7	-2.2	4
CC1CC(C)CN(C(=O)CCNC(=O)Cn2cnc3ccccc3c2=O)C1 (stereo not given)	7	4%	0	-0.9	-0.5	2.3	15	6	2.3	-11
Cc1c(OC(C)C(=O)NCCCN2CCOCC2)ccc2c3c(c(=O)oc12)CCCC3 (stereo not given)	17	18%	6	3.1	0.4	5.2	0	2	-0.8	4
CCOc1ccccc1-n1c(SCC(N)=O)nnc1-c1ccco1	4	-4%	-6	3.7	0.1	0.1	6	4	-4.9	11
CCOc1ccc(C(=O)Cc2cc(OC)c(OC)cc2[N+](=O)[O-])cc1	23	0%	nt	-42	0.0	4.0	5	4	2.6	9
O=C(Cc1ccc(Br)cc1)N(Cc1ccccc1)c1ccccn1	8	nt	-6	-2.0	-0.1	2.5	-38	-41	-8.7	21
COc1ccc(NC(=O)COC(=O)[C@@H](NC(=O)c2c(F)cccc2F)C(C)C)cc1	-10	27%	2	-6.9	0.5	3.6	10	5	3.5	-1
Cc1ccc(NC(=O)c2ccc(C)cc2)cc1	-27	nt	-5	0.8	-3.4	-2.6	6	14	-1.0	-16
CC(C)CNC(=S)NC(=O)c1ccc(Cl)cc1Cl	33	nt	0	-0.6	-0.6	?	-2	-6	-6.1	-20
CCOc1ccc(/C=N/OCC(=O)NCc2cccs2)cc1	-1	nt	4	nt	0.2	-0.4	nt	nt	nt	15
COc1cccc(C(=O)NNC(=O)/C=C/c2ccccc2)c1	-14	nt	1	-4.0	0.3	1.7	6	10	3.0	13
CC(C)(C)C(=O)CN1C(=O)NC2(CCOc3ccccc32)C1=O (stereo not given)	2	nt	-1	0.1	?	0.2	8	2	6.6	-3
O=C(O)c1oc2ccccc2c1CN1CCN(c2ccccc2)CC1	-2	-1%	0	nt	0.5	-4.1	nt	nt	nt	-18

The list goes on:
SMILES	Calb FLC	Vif TR-FRET	Beta cell apopt	AF4-AF9 inh	A1 inh	RanGTP-Imp inh	Ecoli rRNA inh	Ecoli rRNA inh OD600	Ecoli rRNA inh RFP	T cruzi repl
O=C(CCc1ccccc1)NN1C(=O)C2C3C=CC(O3)C2C1=O (stereo not given)	-11	nt	1	-0.4	0.0	-3.4	19	14	2.6	-13
O=C(CSc1nc(C2CCCCC2)n(-c2ccccc2)n1)NCCN1C(=O)CSC1=O	-9	?	-3	nt	-0.6	2.3	nt	nt	nt	-10
CCOC(=O)C1CCCN(c2ncnc3c2cnn3-c2cccc(C)c2)C1 (stereo not given)	-22	-5%	-1	nt	0.3	-6.6	nt	nt	nt	0
CC1(C2CC2)NC(=O)N(CC(=O)N2CCN(c3cccc(C(F)(F)F)c3)CC2)C1=O (stereo not given)	nt	-7%	-11	-1.2	-0.2	nt	-9	-13	-1.1	nt
Cc1ccc2nc(N(CCCN(C)C)C(=O)COc3ccc(Cl)cc3)sc2c1	-4	-3%	3	-17	1.1	0.9	-28	13	13	41
Cn1nc(C(=O)NCCOc2ccccc2)c2ccccc2c1=O	2	-1%	-2	-3.7	1.2	1.4	-19	-16	0.2	8
Cc1ccc(C)c(OCC(=O)NNC(=O)C2CCC2)c1	nt	-7%	-2	0.7	1.4	nt	12	10	-0.9	nt
Cc1ccc(C(=O)NNC(=S)Nc2cccc(Cl)c2Cl)cc1[N+](=O)[O-]	19	-2%	-10	-25	0.1	-2.1	-47	-41	-26	-18
